Hsc70 ATP site = Hsc70 inhibitors, probe displacement, primary screen, biochemical, fluorescence polarization (AID 568); Heat shock cognate 71 kDa protein (Homo sapiens); Hsc70 fluorescence polarization, probe displacement; higher % means a stronger effect; strong numbers were not always called active; one-dose displacement, % at 20 µM; IC50 in µM for titrated hits; 83,000 tested, under 10 active;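 active means displacement above 50% without optical interference and an IC50 on retest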;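 further: ATPase domain with a fluorescein-tagged ATP probe; 0% = vehicle and 100% = excess ADP; read after one hour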
MT1-MMP reporter = inhibitors of MT1-MMP promoter transcription, cell-based, luciferase reporter, luminescence (AID 618); calls from a first round at 10 µM; hits with a dose series show EC50 in µM; MT1-MMP promoter luciferase reporter cells, luminescence; 0.62% of 87,000 active;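 active means over half of the reporter light lost at 10 µM or EC50 under 50 µM; inactive means the rest and hits that failed the dose series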;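 further: actives suppress MT1-MMP promoter-driven transcription so potencies describe inhibitors; HT1080 fibrosarcoma cells; overnight exposure; toxic or luciferase-blocking compounds were not removed from the actives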
WNV NS2B-NS3 inh = inhibitors of WNV NS2B-NS3 protease, primary screen, biochemical, fluorogenic substrate. fluorogenic substrate Ex360/Em465; hits give low values. 0.18% of 65,000 active. z-score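 (tested at a level between 10 and 100 µM)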. Genome polyprotein (West Nile virus), P06935;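 active means z-score at -3 or under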;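 further: score is relative to mean and spread of the compound wells of a plate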
Target sequence (P06935 1371-1501 limits assumed): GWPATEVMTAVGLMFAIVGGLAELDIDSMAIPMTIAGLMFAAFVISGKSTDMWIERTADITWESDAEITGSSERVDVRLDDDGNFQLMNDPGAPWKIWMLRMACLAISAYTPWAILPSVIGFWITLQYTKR
Target sequence (P06935 1502-1679 limits assumed): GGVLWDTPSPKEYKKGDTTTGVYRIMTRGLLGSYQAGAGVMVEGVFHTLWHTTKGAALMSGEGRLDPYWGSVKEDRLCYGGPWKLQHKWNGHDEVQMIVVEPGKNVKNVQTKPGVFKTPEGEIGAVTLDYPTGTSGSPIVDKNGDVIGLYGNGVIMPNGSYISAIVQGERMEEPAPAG
Starred values were filed as active, the others as inactive; i = inactive; · = no result given; + = active, no number.

nr	SMILES	Hsc70 ATP site	MT1-MMP reporter	WNV NS2B-NS3 inh
1	O=C(Nc1ccc(N2CCN(Cc3ccccc3)CC2)cc1)c1ncn[nH]1	-6.0%	i	0.02
2	O=C(O)C1C(c2ccccc2)C(C(=O)OCc2ccco2)C1c1ccccc1 (stereo unspecified)	0.4%	i	2
3	COc1ccc(NC(=O)C23CCC(C)(C(=O)C2)C3(C)C)cc1 (stereo unspecified)	5.2%	i	0.0009
4	CC(=O)N1CCc2cc(S(=O)(=O)NCCC(=O)NC3CCCc4ccccc43)ccc21 (stereo unspecified)	5.5%	i	-0.38
5	CC1CC(C)CN(C(=O)Cn2c(=O)n(CCCCC(=O)NC3CCCC3)c(=O)c3ccccc32)C1 (stereo unspecified)	0.6%	i	-0.15
6	C=CCNC(=O)C1CC(=O)N(c2ccc(OCC(=O)Nc3ccccc3)cc2)C1 (stereo unspecified)	-2.2%	i	-2.1
7	C=CCn1c(=O)/c(=C/c2ccc(C)o2)s/c1=C(/C#N)C(=O)c1ccccc1	7.0%	i	0.6
8	O=C(CSc1nc2ccccc2c(=O)n1CCCC(=O)N1CCCC1)NCc1ccco1	-2.0%	i	-1.1
9	COCc1cc(C)nc(NC2CCCCC2)c1C#N	-1.5%	i	0.58
10	COC(=O)[C@H](CCSC)NC(=O)Nc1ccc(OC)cc1OC	2.6%	i	·
11	COc1ccc(NS(=O)(=O)Cc2ccccc2Cl)cn1	0.8%	i	-0.1
12	CCCCS(=O)(=O)/C=C\C=C/S(=O)(=O)CCCC	-6.9%	+	0.41
13	CS(=O)(=O)Nc1ccccc1C(=O)NC1CC2CCC1C2 (stereo unspecified)	3.2%	i	0.64
14	CCOC(=O)c1c(C=O)c(C)n(Cc2ccc(C)cc2)c1C	-4.5%	i	·
15	O=S(=O)(Nc1ncccc1O)c1ccc(Cl)cc1	8.9%	i	-1.2
16	O=S(=O)(Nc1nccs1)c1cc(Cl)ccc1Cl	1.4%	i	0.22
17	CC(=O)C1=C(C)NC(SCC(=O)c2cc(Cl)ccc2Cl)=C(C#N)C1c1ccco1 (stereo unspecified)	-31%	i	-0.91
18	CCOC(=O)c1c(N)sc2c(NC(C)=O)cccc12	-2.6%	i	-0.46
19	Cc1occc1C(=O)N1CCN(S(C)(=O)=O)CC1	2.0%	i	1.1
20	Nc1nnnn1/N=C/c1cc(Cl)cc(Cl)c1OCc1ccc(Cl)cc1Cl	-0.7%	i	·
21	COC(=O)c1ccc(Cn2nc(C)cc2C)cc1	6.2%	i	·
22	CC(C)CCN1CC(O)=C(c2nc(-c3ccc(Cl)cc3)cs2)C1=N	1.7%	i	·
23	CC(c1ccccc1)n1c(NCCCn2ccnc2)nc2c1c(=O)[nH]c(=O)n2C (stereo unspecified)	-4.7%	i	0.23
24	COc1ccc(CCNc2c(C)c(C)nc3ncnn23)cc1	6.4%	i	-1.5
25	CCOC(=O)c1ccc(NC(=O)COc2ccc(S(=O)(=O)NC(C)(C)C)cc2)cc1	0.2%	i	·
26	COc1cccc(NS(=O)(=O)c2ccc3[nH]cc(C(=O)N(C)Cc4ccco4)c(=O)c3c2)c1	-4.3%	i	·
27	CCn1c(C)csc1=NC(=O)c1ccccc1	0.0%	i	-0.85
28	O=C(NCc1ccco1)C(c1ccccc1)N(CC1CCCO1)C(=O)Cn1nnc2ccccc21 (stereo unspecified)	-4.1%	i	0.24
29	O=C(Cc1ccc(Br)cc1)N1CCN(c2ccccc2)CC1	5.2%	i	1.6
30	CC(CC(=O)N1CCc2ccccc21)c1ccccc1 (stereo unspecified)	0.6%	i	·
31	O=C1S/C(=C/c2ccc(N3CCOCC3)o2)C(=O)N1Cc1c(F)cccc1Cl	-34%	i	·
32	O=S(=O)(NCCc1cn2ccccc2n1)c1ccc2c(c1)OCCO2	4.2%	i	-0.57
33	CCc1ccc(N2CC(C(=O)Nc3cccnc3)CC2=O)cc1 (stereo unspecified)	1.7%	i	·
34	Cc1sc(NC(=O)c2ccccc2)c(C(=O)NC(C)C)c1C	-0.5%	i	·
35	COc1ccc(OC(=O)c2ccc3nsnc3c2)cc1	-1.6%	i	·
36	O=C(Nc1cccc(C(F)(F)F)c1)N1CCC(c2nc(-c3ccc(F)cc3)no2)CC1	3.1%	i	1
37	CC(=O)NCCn1c(SCC(=O)NCCC2=CCCCC2)nc2ccccc2c1=O	-4.3%	i	-1.1
38	O=S(=O)(c1ccccc1)c1nc(-c2ccco2)oc1NCCCn1ccnc1	5.4%	i	-0.4
39	CCCc1cc(C(=O)Nc2ccc(C(C)=O)cc2)no1	1.1%	i	-0.27
40	CSc1oc(-c2ccccc2)nc1C(N)=O	2.1%	i	-0.17
41	O=C(Nc1ccccc1)c1ccc(S(=O)(=O)NCC2CCCO2)cc1 (stereo unspecified)	3.0%	i	-1.3
42	COC(=O)c1cc2occc2n1CC(=O)Nc1ccc(C)cc1C	-4.1%	i	-0.97
43	Cc1cc(C)n(C(=O)c2ccc(NC(=O)C3CC3)cc2)n1	3.2%	i	0.99
44	CCCS(=O)(=O)N1CCCC(C(=O)NCCN(CC)c2ccccc2)C1 (stereo unspecified)	-2.3%	i	0.89
45	Cc1nc2ccccc2nc(C)c1=NO	6.3%	i	·

More records follow:
No.	smiles	Hsc70 ATP site	MT1-MMP reporter	WNV NS2B-NS3 inh
46	O=C(CN1CCOc2ccccc21)NC1CCN(Cc2ccccc2)CC1	7.7%	i	0.29
47	O=C(NC1CCSC1=O)c1ccccc1 (stereo unspecified)	-5.9%	i	·
48	O=C1CN(C(=O)CSc2nnc(-c3ccccc3)n2Cc2ccc3c(c2)OCO3)c2ccccc2N1	-2.5%	i	1.3
49	CCc1nnc(NC(=O)C2CCCN2S(=O)(=O)c2ccccc2)s1 (stereo unspecified)	1.8%	i	0.42
50	CC(C)(C)C(=O)/C(C#N)=c1\s/c(=C\c2ccncc2)c(=O)n1CCCN1CCOCC1	-5.9%	i	1.1
51	Cn1cc(S(=O)(=O)NCc2cccs2)c(=O)n(C)c1=O	5.4%	i	-0.24
52	CCn1c(N2CCN(S(=O)(=O)c3ccccc3C(F)(F)F)CC2)nc2ccccc21	-0.6%	i	0.46
53	O=C(c1c[nH]c(=O)n(-c2ccccc2)c1=O)N1CCc2ccccc21	4.5%	i	-0.59
54	O=C(c1ccc(CNS(=O)(=O)c2ccccc2)cc1)N1CCN(Cc2ccccc2)CC1	4.3%	i	·
55	FC(F)Sc1ccc(Nc2ncnc3nc[nH]c23)cc1	3.1%	i	·
56	Cc1cc(C(=O)Nc2c(C)n(C)n(-c3ccccc3)c2=O)cs1	0.5%	i	0.89
57	CN(C)S(=O)(=O)c1ccc(NC(=O)COC(=O)c2n[nH]c3ccccc23)cc1	-1.1%	i	·
58	COc1ccc2c(c1)c1ncn(CCc3ccccc3)c(=O)c1n2C	-1.7%	i	·
59	O=C(O)C1CCCN1S(=O)(=O)c1ccccc1 (stereo unspecified)	-0.2%	i	·
60	Cc1cc(NC(=O)CSc2nc3c(c(-c4cccnc4)c2C#N)CCC3)no1	-5.7%	i	0.64

A run of entries of the results above, for reference:
No.	smiles	Hsc70 ATP site	MT1-MMP reporter	WNV NS2B-NS3 inh
46	O=C(CN1CCOc2ccccc21)NC1CCN(Cc2ccccc2)CC1	7.7%	i	0.29
47	O=C(NC1CCSC1=O)c1ccccc1 (stereo unspecified)	-5.9%	i	·
48	O=C1CN(C(=O)CSc2nnc(-c3ccccc3)n2Cc2ccc3c(c2)OCO3)c2ccccc2N1	-2.5%	i	1.3
49	CCc1nnc(NC(=O)C2CCCN2S(=O)(=O)c2ccccc2)s1 (stereo unspecified)	1.8%	i	0.42
50	CC(C)(C)C(=O)/C(C#N)=c1\s/c(=C\c2ccncc2)c(=O)n1CCCN1CCOCC1	-5.9%	i	1.1
51	Cn1cc(S(=O)(=O)NCc2cccs2)c(=O)n(C)c1=O	5.4%	i	-0.24
52	CCn1c(N2CCN(S(=O)(=O)c3ccccc3C(F)(F)F)CC2)nc2ccccc21	-0.6%	i	0.46

The listing continues.
No.	smiles	Hsc70 ATP site	MT1-MMP reporter	WNV NS2B-NS3 inh
61	O=C(Nc1cccc(Cn2cccn2)c1)c1cc2c(s1)CCCC2	-0.7%	i	-0.24
62	CCc1ccc(NC(=O)c2ccc3nc(N)sc3c2)cc1	2.7%	i	·
63	O=C(NC1CCCCC1)[C@H](O)[C@@H](O)C(=O)NC1CCCCC1	-1.7%	i	0.32
64	COc1ccc2c(c1)cc(C)c1nnc(SCC(=O)N3CCN(C(=O)c4ccco4)CC3)n12	-1.0%	i	-1.4
65	CS(=O)(=O)N(CC(=O)Nc1cccc(F)c1)Cc1ccccc1	-3.0%	i	-0.18
66	Cc1ccc(N2C(=O)C(c3c(C)[nH]n(-c4ccccc4)c3=O)(C(F)(F)F)C3=C2CC(C)(C)CC3=O)cc1 (stereo unspecified)	5.1%	i	·
67	CC1(C)Cc2c(sc3nc(SCC(=O)N4CCOCC4)nc(N)c23)CO1	0.7%	i	-0.9
68	CCCc1nc2n[nH]c(N)c2c2c1COC(C)(C)C2	-0.6%	i	-0.53
69	O=C(NC12CC3CC(CC(C3)C1)C2)N1CCN(S(=O)(=O)c2ccc(Cl)cc2)CC1	-0.5%	i	0.93
70	CC(C)N(C(=O)Nc1ccc2nccnc2c1)C(C)C	-0.1%	i	1.7
71	Cc1cnc2cc(Cl)c(Cl)cc2n1	-0.6%	i	·
72	Cn1nc(CC(=O)Nc2ccc3c(c2)OCCO3)c2ccccc2c1=O	6.7%	i	-0.76
73	CCOC(=O)N1CCN(C(=O)C2CCCN(c3nc4ccc(OCC)cc4s3)C2)CC1 (stereo unspecified)	-1.3%	i	0.25
74	COc1ccc(CCNC(=O)c2c(-c3ccccc3)noc2C)cc1OC	2.2%	i	-0.22
75	CN(C)CCNC(=O)c1ccc(CS(=O)(=O)c2c(Cl)cccc2Cl)o1	-3.2%	i	-0.61
76	COc1cc(C(=O)N(Cc2ccco2)Cc2cc3ccccc3[nH]c2=O)cc(OC)c1OC	-3.3%	i	1.8
77	O=S(=O)(c1ccc2ccccc2c1)N1CCCOC1	-13%	i	-2.2
78	Cc1ccc(C)c(Cn2nnc3c(=O)[nH]c(C(=O)NCC4CCCO4)nc32)c1 (stereo unspecified)	-0.2%	i	-0.45
79	CCOc1ccc(Nc2ncnc3c2cnn3Cc2ccccc2)cc1	-1.2%	i	·
80	Cc1noc(C)c1COC(=O)c1cc(C)n(-c2ccccc2)c1C	-2.5%	i	-1.2
81	CC(C)CCSc1ncnc2c1oc1nc3c(cc12)COC(C)(C)C3	-2.7%	i	·
82	O=C(C1CCCN(Cc2ccccc2)C1)N1CCc2ccccc2C1 (stereo unspecified)	2.6%	i	·
83	Cc1ccc(OC(C)C)c(CN(CCO)CCO)c1	-3.1%	i	·
84	O=C(NCc1ccc(Cl)cc1Cl)c1ccccn1	0.2%	i	-0.12
85	COc1ccc(-c2c(C)n([O-])c(C)c(-c3ccccc3)[n+]2=O)cc1OC	-6.5%	i	·
86	CC1(C)CC(=O)CC(C2(O)C(=O)N(Cc3ccccc3)c3ccccc32)O1 (stereo unspecified)	-4.8%	i	0.96
87	COc1ccccc1NS(=O)(=O)CC12CCC(CC1=O)C2(C)C (stereo unspecified)	-2.6%	i	0.05
88	COc1cc2cc(C(c3nnnn3C3CCCCC3)N(C)C3CCCCC3)c(=O)[nH]c2cc1OC (stereo unspecified)	-1.4%	i	0.78
89	CSc1nnc2n(C)c3c(c(=O)n12)C1(CCCC1)Cc1ccccc1-3	1.4%	i	1
90	CN(C(=O)C1CCOC1)c1nnc(-c2cnccn2)s1 (stereo unspecified)	-6.9%	i	-0.98
91	Cc1csc(NC(=O)CCc2ccc(S(=O)(=O)N3CCOCC3)cc2)n1	-1.3%	i	·
92	COc1ccc(OC)c(-n2c(SCC(=O)Nc3cc(C)on3)nnc2-c2c[nH]c3ccccc23)c1	1.3%	i	-0.97
93	CCCCOC(=O)Nc1cccc(C(C)=O)c1	9.1%	i	1.1
94	Nc1c(C(=O)Nc2ccc(F)cc2)sc2nc(-c3ccco3)ccc12	-4.9%	i	0.24
95	COc1ccc(C2C(C#N)=C(N)Oc3cc(C)n(CCN4CCOCC4)c(=O)c32)cc1OC (stereo unspecified)	-2.5%	i	0.27
96	NC(=O)C1(N2CCCCC2)CCN(C(=O)CSc2nc(C(F)(F)F)cc(=O)[nH]2)CC1	5.0%	i	0.42
97	CN1C(=O)Cn2c1nc1ccccc12	-2.0%	i	0.71
98	Cc1cc(-c2ccccc2)n(-c2ccc(C(=O)N3CCN(c4ncccn4)CC3)cc2)n1	4.2%	i	-0.46
99	CC1CCCC(NS(=O)(=O)c2ccc3c(c2)OCCO3)C1C (stereo unspecified)	-9.5%	i	-0.46
100	COCc1[nH]nc2c1C(c1cc(OC)c(O)c(OC)c1)C(C#N)=C(N)O2 (stereo unspecified)	-2.1%	i	-0.0067
101	COc1ccc(NC(=O)C2C3CCC(C3)C2C(=O)O)cc1OC (stereo unspecified)	4.6%	i	-0.03
102	c1ccc(Cn2nnnc2CN2CCN(c3ncccn3)CC2)cc1	4.4%	i	-1.1

Source: PubChem

Rows are unselected, and some 0.77% of all compounds hit somewhere here.
